Screening results as filed in PubChem BioAssay.
S aureus helic: blocks Staphylococcus aureus DNA helicase; AID 485395; purified S. aureus helicase, fluorescence unwinding assay; about half of the hits fall short of the stated cut; inhibition, %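 (tested at about 80 µM)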; 120,000 compounds, 0.05% hits;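 active = both duplicates at 50% or more, or one of them with a favoured structure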;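 note: 0% = mean of negative control wells and 100% = mean of positive control wells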
MgrA-DNA mod: alters Staphylococcus aureus MgrA binding to DNA; fluorescence polarization; inhibition, %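 (about 10 µg/mL by stock and volumes)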; 84,000 compounds, 0.13% hits; AID 602314;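 active = above 50% in either of two replicates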;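 note: 0% = protein plus DNA without compound and 100% = DNA alone without protein; higher means less MgrA bound to DNA so lower polarization; one replicate is shown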
Active calls of the source: *; . = no result given; & = joins results of further samples. Only part of the results is shown. The share of hits here may be higher or lower than overall.

S aureus helic	MgrA-DNA mod	SMILES
10.0	1.4	Cc1cc(NC(=O)CSc2nc3c(sc4ccccc43)c(=O)n2CCc2ccccc2)n[nH]1
2.0	.	Cc1ccc2nc(C)cc(C)c2c1
5.0	0.1	O=c1oc2ccccc2n1CCCOc1ccc2ccccc2c1
3.0	.	CCC(Sc1nc2ccc(N3CCOCC3)cc2c(=O)n1CCc1ccccc1)C(=O)NCc1ccco1 (stereo not drawn)
7.0	6.7	CCc1cc(C(=O)OC)c(NC(=S)Nc2cn(CC)nc2C(N)=O)s1
5.0	3.6	O=C(Cn1nnc(-c2ccccc2NC(=O)c2cnccn2)n1)Nc1ccc2c(c1)OCCO2
.	-2.2	O=C(O)c1ccccc1C1NC(C(=O)O)CS1 (stereo not drawn)
4.0	2.1	c1coc(-c2nc3ccccc3n2CCC2CCCCC2)c1
-4.0	.	COc1cc(-c2nnc(SCC(=O)N3CCCC3)o2)cc(OC)c1OC
.	-0.9	C=CCOc1ccc2c(=O)cc(C(=O)OCC)oc2c1
31.0	.	CCOC(=O)C1=C(CN2CCOCC2)NC(=O)NC1c1ccc(Cl)cc1 (stereo not drawn)
-12.0	.	Cn1c(SCC(=O)N2CCCC2=O)nc2ccccc21
.	-4.2	Clc1ccccc1CSC1=NCCCN1C1CCCCC1
11.0	.	CSc1nnc(-c2ccco2)c(-c2ccco2)n1
6.0	-2.8	CC(C)n1c(=O)[nH]c2cc(C(=O)Nc3ccccc3N3CCCC3)ccc21
10.0	-1.2	CCn1cc(C(=O)O)c(=O)c2cc(F)c(N3CCN(C(=S)NC)CC3)cc21
4.0	.	COC(=O)C1C(=O)C2=C(CC1C)NC(C)=C(C(=O)OC1CCCC1)C2c1ccc(C)o1 (stereo not drawn)
.	2.0	CC1(C)CC(=O)c2c(S(C)(=O)=O)sc(Br)c2C1
9.0	0.4	Nn1c(CSc2ccccn2)nnc1CSc1ccccn1
10.0	.	Cc1ccc(C#N)c(SC(C)(C)C(=O)O)n1
29.0	.	CC1C(=O)NN=C1C(=O)N=Nc1c(O)[nH]c2ccccc12 (stereo not drawn)
8.0	.	c1ccc(-c2noc(CSc3nnc(Cc4cccs4)n3C3CCCCC3)n2)cc1
-2.0	0.0	CCn1c(C)nnc1SCc1ccccc1
6.0	0.4	COc1ccc(N=Nc2c(N)n[nH]c2N)cc1
-7.0	.	COc1ccc(N(Cc2ccno2)S(=O)(=O)c2ccccc2)cc1
4.0	.	COc1ccc(NC(=O)Nc2cccc(C)c2)cc1
10.0	2.4	Cc1cc(N2CCCC2)c2ccccc2n1
6.0	-15.0	O=C(CNCC1CCCO1)NCc1ccco1 (stereo not drawn)
-2.0	1.2	CCOc1no[n+]([O-])c1-c1ccccc1
-12.0	.	Brc1ccc(-c2nnc(CSc3nnc(-c4ccco4)n3C3CCCCC3)o2)cc1
2.0	-0.6	CC1CCN(S(=O)(=O)c2ccc3nc(-c4ccccn4)cc(C(=O)NC4CCCC4)c3c2)CC1
.	28.5&6.2	COc1cc2cc3c4cc(OC)c(OC)cc4cc[n+]3c(C)c2cc1OC
6.0	2.2	CC(C)C(NC(=O)c1ccco1)C(C)C
-16.0	.	Cc1ccc(C2=NN(C(=O)COC(=O)c3cc4c(C)nn(-c5ccc(F)cc5)c4s3)C(c3ccco3)C2)cc1 (stereo not drawn)
2.0	2.0	NC(=S)/N=C1/CCN(c2ccccc2)N1
22.0	-0.4	CCOC(=O)CCc1c(C)c2ccc(OCC(=O)N(CC)CC)c(C)c2oc1=O
0.0	3.3	CCOC(=O)c1csc(Nc2ccccn2)n1
20.0	7.6	O=C(Nn1cnnc1)c1cccc(C(=O)Nn2cnnc2)c1
-14.0	.	O=C(N/N=C1\CC2CC=CC12)c1ccc(Br)cc1 (stereo not drawn)
.	-2.0	CCOC(=O)N/N=C/c1c[nH]c2ccccc12
5.0	.	CSc1nc2ccc(NC(=O)c3cc(=O)c4ccccc4o3)cc2s1
.	-0.8	CC(C)(C)c1ccc(CS(=O)(=O)CCOc2ccccc2)cc1
9.0	3.0	CCc1ccc(S(=O)(=O)/N=C2/C=C(Nc3ccccc3)C(=O)c3ccccc32)cc1
.	0.1	O=C(O/N=C/c1ccc2c(c1)OCO2)c1ccc([N+](=O)[O-])cc1
-3.0	2.8	CCn1cc(S(=O)(=O)N2c3ccc(F)cc3CCC2C)cn1 (stereo not drawn)
-22.0	-1.2	Cc1cccc(S(=O)(=O)NCc2ccccc2)c1
30.0	.	CCS(=O)(=O)c1ccc2oc(=O)c(/C=C(\O)C(C)(C)C)nc2c1
-7.0	1.9	O=C(Nc1ncnc2sc3c(c12)CCCC3)C(F)(F)F
.	-15.4	OCc1nc(-c2ccc(Cl)c(Cl)c2)cs1
.	-0.5	CC[C@]12CCCN3CCc4c(n(c5ccccc45)C(=O)C1)[C@@H]32

A draw from above in order of molar mass, high to low.
S aureus helic	MgrA-DNA mod	SMILES
9.0	3.0	CCc1ccc(S(=O)(=O)/N=C2/C=C(Nc3ccccc3)C(=O)c3ccccc32)cc1
5.0	.	CSc1nc2ccc(NC(=O)c3cc(=O)c4ccccc4o3)cc2s1
-3.0	2.8	CCn1cc(S(=O)(=O)N2c3ccc(F)cc3CCC2C)cn1 (stereo not drawn)
.	0.1	O=C(O/N=C/c1ccc2c(c1)OCO2)c1ccc([N+](=O)[O-])cc1
-7.0	1.9	O=C(Nc1ncnc2sc3c(c12)CCCC3)C(F)(F)F
.	-0.5	CC[C@]12CCCN3CCc4c(n(c5ccccc45)C(=O)C1)[C@@H]32
-22.0	-1.2	Cc1cccc(S(=O)(=O)NCc2ccccc2)c1

More records
S aureus helic	MgrA-DNA mod	SMILES
25.0	.	CCOC(=O)Cn1ncn2c(c(-n3cccc3)c3c4c(sc32)CCCC4)c1=O
0.0	5.2	CCC(=O)NC(c1ccccc1OC)c1cc(Cl)c2cccnc2c1O (stereo not drawn)
.	-2.0	Nc1cc(-c2cccc(C(F)(F)F)c2)[nH]n1
.	-1.5	Cc1nc(C)c(-c2ccnc(-c3ccc(Cl)cc3)n2)s1
.	5.6	CCOC(=O)c1ccc(NC(=S)NCCN2CCNC2=O)cc1
20.0	.	CC(=O)Oc1ccc2c(oc(=O)c3ccccc32)c1C
.	-1.7	O=C(NNS(=O)(=O)c1cc(Cl)c(Cl)cc1Cl)c1cccnc1
.	-1.9	O=C(O)CCC(=O)Nc1ccc(-n2ccc(C(F)(F)F)n2)cc1
-6.0	.	c1ccc2c(c1)nc1n2CCNC1
12.0	-1.1	O=C(O)C1CC(=O)N(CCc2ccccc2)C(=NCCc2ccccc2)S1 (stereo not drawn)
18.0	5.0	Cn1c(=O)n2ncnc2c2c3c(sc21)CCCC3
8.0	.	Oc1cccc(N2Cc3ccccc3C2)c1
5.0	0.4	CC(C)N(C(=O)CSc1nnc(-c2ccc3c(c2)OCO3)n1C)C(C)C
3.0	-0.3	Cc1cccc(N2C(=O)CC(Sc3ncccc3C(=O)O)C2=O)c1C (stereo not drawn)
4.0	-0.8	COc1ccc(S(=O)(=O)N/N=C(/C2CCCCC2)C(F)(F)F)cc1
-7.0	.	COC(=O)C(O)(NS(=O)(=O)c1ccccc1)C(F)(F)F (stereo not drawn)
-2.0	.	CCOc1ccc(OCCCC(=O)OCc2nnc3n(C)c(=O)c4ccccc4n23)cc1
20.0	.	CC(C)OP(=O)(c1ccc(N(C)C)cc1)C(Nc1ccccc1)c1ccccc1 (stereo not drawn)
.	-1.4	Cc1ccc(S(=O)(=O)CCN2CCC(n3cccc3)CC2)cc1
.	2.8	COc1cc(/C=C2\SC(=Nc3cc(C)cc(C)c3)NC2=O)c([N+](=O)[O-])cc1OC
12.0	.	O=C(COC(=O)/C=C/c1ccco1)Nc1nnc(-c2ccccc2)o1
22.0	14.4	CCN(CC)c1ccc(NC(=S)Nc2ccc(S(N)(=O)=O)cc2)cc1
10.0	.	Cc1cc(C)cc(-n2c(C)cc(/C=C3/C(=N)N4C=CSC4=NC3=O)c2C)c1
0.0	5.3	Cc1cc2cc(CN(Cc3ccco3)C(c3nnnn3C3CCCC3)C(C)C)c(=O)[nH]c2cc1C (stereo not drawn)
-4.0	1.4	CCNc1nc(NC(C)C)nc(C(=O)O)n1
-2.0	.	CN1/C(=C\C(=O)CN2C(=O)NC3(CCCCC3)C2=O)C(C)(C)c2ccccc21
-5.0	.	CN(C1CCS(=O)(=O)C1)S(=O)(=O)c1ccc(Cl)cc1 (stereo not drawn)
14.0	.	COc1ccc(C(=O)COC(=O)c2ccc3c(=O)n4c(nc3c2)CCC4)cc1OC
6.0	.	O=C(O)C1=CN2CCS(=O)(=O)N=C2C=C1
-2.0	-0.9	NS(=O)(=O)c1ccc(CNC(=O)c2ccc(C(=O)N(C3CCCCC3)C3CCCCC3)cc2)cc1
-29.0	.	CCN(CC)S(=O)(=O)c1ccc(-c2ccc(/C=N/N=C3\NC(=O)C(CC(=O)Nc4ccccc4)S3)o2)cc1 (stereo not drawn)
17.0	-3.8	Cc1nn(C(=O)Cc2ccc(Cl)cc2)c(C)c1Br
.	1.7	O=[N+]([O-])c1cccc(-c2noc(-c3c(F)cccc3F)n2)c1
-4.0	4.2	CC/C(O)=C1\C(=O)CCCC1=NCCc1c(C)[nH]c2ccccc12
.	-1.1	N/C(=N\O)c1cccc(CS(=O)(=O)c2ccccn2)c1
8.0	.	Cc1nc2c(cc(O)c3ccsc32)s1
.	-1.2	COc1cc(C(=O)NC(C)(C)CC(C)(C)C)cc(OC)c1OC
.	-0.8	CCN=C1SC(CC(=O)Nc2cccc(C(F)(F)F)c2)C(=O)N1CC (stereo not drawn)
16.0	-0.9	CCOc1ccc(/C=C2\SC(N3CCCC3)=NC2=O)cc1
6.0	0.1	CC1(C)CC(=O)C2=C(C1)NC(SCC(=O)N1CCOCC1)=C(C#N)C2c1ccco1 (stereo not drawn)
12.0	0.6	Cc1ccc(CC(=O)Nc2nccs2)cc1
-8.0	.	O=C(CNCCc1ccc2c(c1)OCCO2)NC1CCCCCC1
.	-1.7	OC(CNCc1ccc2c(c1)OCO2)COc1ccccc1 (stereo not drawn)
16.0	-2.5	CS(=O)(=O)N1CCN(C(=S)Nc2cccc3ccccc23)CC1
.	-0.6	N#Cc1ccc(CSC(=N)N)cc1
12.0	0.6	Cc1ccc(C(=O)NC2CCCC2)s1
8.0	-0.8	CC(=O)N(Cc1ccc(S(N)(=O)=O)cc1)C1CC(=O)N(c2ccccc2)C1=O (stereo not drawn)
23.0	-1.2	COc1ccc(N2CCN(C(=S)c3ccccc3)CC2)cc1
22.0	.	O=C(O)C1CCC(=O)N1C1c2ccccc2Oc2ccccc21 (stereo not drawn)
-8.0	.	CC(=O)Nc1ccc(N2C(=O)CC(/C=C3/N(C)c4ccccc4C3(C)C)C2=O)cc1 (stereo not drawn)

Next section (2 carried over from the part before).
S aureus helic	MgrA-DNA mod	SMILES
22.0	.	O=C(O)C1CCC(=O)N1C1c2ccccc2Oc2ccccc21 (stereo not drawn)
-8.0	.	CC(=O)Nc1ccc(N2C(=O)CC(/C=C3/N(C)c4ccccc4C3(C)C)C2=O)cc1 (stereo not drawn)
-45.0	17.5	O=C1NC(c2ccccc2)=NC1=C(Cl)Cl
16.0	.	O=C(OCC(=O)N1CCN(c2ccccc2)CC1)c1ccco1
3.0	2.2	Cc1ccc(-c2nnn(CC(=O)N(Cc3ccccc3)C(C(=O)NC3CCCC3)c3ccco3)n2)cc1 (stereo not drawn)
.	-0.5	CCOC(=O)/C(N=Nc1ccccc1)=C(\C)O
-2.0	-0.2	CN1CCN(C(=O)NC2CCCCC2)CC1
1.0	2.5	NC(=O)Cn1nnc(-c2ccccc2N)n1
6.0	.	CN(C(=O)CSc1nncn1-c1ccccc1)C1CCCCC1
13.0	-25.4	CC(C)C1Oc2ccccc2N(CC(=O)N(Cc2ccccn2)C2CC2)C1=O (stereo not drawn)
19.0	-3.2	N#CCC(=O)NS(=O)(=O)c1ccccc1
.	3.0	COC(=O)c1c(C)[nH]c(C)c1C(=O)c1ccccc1Cc1ccccc1
15.0	-2.2	Oc1cc2ccsc2c2ccccc12
-13.0	.	O=S(=O)(c1ccccc1C(F)(F)F)N1CCN(c2ncccn2)CC1
-13.0	.	CCOC(=O)Cc1csc(NC(=O)c2sc3ccccc3c2Cl)n1
6.0	1.8	NCc1cccc(Oc2ccccc2)c1
-1.0	-1.6	O=C(NCCOc1ccccc1-c1ccccc1)c1cccc2ccccc12
4.0	.	COC(=O)CSc1nnc(Nc2ccccc2C)s1
3.0	-0.7	CCOC(=O)c1c(NC(=O)c2ccccc2C(=O)O)sc2c1CCCC2
-6.0	.	O=C(c1c(O)c2ccccc2oc1=O)C1CC1
-1.0	.	Cc1ccc2[nH]c3c(=O)n(CC(=O)N4CC(C)CC(C)C4)ncc3c2c1 (stereo not drawn)
7.0	.	O=C(COC(=O)C1CCCCC1C(=O)N1CCc2ccccc21)NCc1ccco1 (stereo not drawn)
21.0	.	NC(=S)c1ccc(-c2ccno2)s1
10.0	.	Cc1nc2ccccc2nc(C)c1=NOCC(=O)Nc1ccc(S(=O)(=O)N2CCOCC2)cc1
-6.0	.	CC(COc1ccc2c(c1)OCO2)NC(=O)c1c(F)cccc1F (stereo not drawn)
8.0	.	CN(C(=O)Cc1ccc(NC2=NC3CS(=O)(=O)CC3S2)cc1)C1CCCCC1 (stereo not drawn)
18.0	.	O=C1C=C(NCC2CCCO2)C2(CCCCC2)O1 (stereo not drawn)
5.0	0.8	O=C(c1ccc(F)cc1F)N1CCN(C(=O)c2ccc(F)cc2F)CC1
4.0	-0.6	Nc1c(C(=O)NCC2CCCO2)sc2ccc(S(=O)(=O)N3CCCCC3)cc12 (stereo not drawn)
.	-2.7	COC(=O)C1=C(NC(C)=O)CCC(C(=O)OC)C1 (stereo not drawn)
-6.0	.	CC(C)N1CCc2nc(SCC(=O)Nc3cccc(Cl)c3)[nH]c(=O)c2C1
